# Ba CapD inh = CapD enzyme inhibition; z-score (test concentration not listed); AID 492967; 140,000 compounds, 0.23% hits; purified CapD enzyme, fluorescence intensity read-out; stronger effect = lower value; some hits fall short of the stated cut;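 active = z-score under -4 in either of two replicates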;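 also: stock transfer was 100 nL into about 40 µL; score is relative to mean and spread of the plate; one replicate is shown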
# AID504770 = E. coli YBA685 growth inhibition, screen for V. cholerae RctB inhibitors; z-score (no concentration beside the values); AID 504770; 130,000 compounds, 0.27% hits; E. coli YBA685 rctB-dependent plasmid, OD600 growth, 3 h; stronger effect = lower value;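 active = z-score under -2 on both plates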;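 also: wells of about 30 µL received 100 nL stock; score is relative to mean and SD of the test wells; the first replicate is given; strong numbers were not always called active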
# Numbers without * were called inactive; / = not tested or not shown.
SMILES,Ba CapD inh,AID504770
COc1ccc(NC(=O)N2CCc3cc(OC)c(OC)cc3C2c2ccccc2)cc1 (stereo not given),-0.085,0.25
O=C(c1ccccc1)N1N=C(c2ccccc2)CC1c1ccc2nccnc2c1 (stereo not given),-0.41,-0.35
O=C(O)Cn1cc2c(n1)CCCCC2,-0.4,-0.45
COc1ccccc1NC(=O)C1=C(C)NC(=S)NC1c1cccc(OC)c1OC (stereo not given),-0.89,/
Cn1nc(C(=O)N2CCCC2c2nc3ccccc3s2)c2ccccc2c1=O (stereo not given),/,0.6
CCOC(=O)/C(C#N)=C\c1ccc(-c2cccc(C(F)(F)F)c2)o1,/,0.1
COC(=O)CSc1nc2ccccc2n1-c1ccc(C)cc1,0.42,-0.4
c1ccc(SCc2cn3cccnc3n2)cc1,/,1.1
CCCc1ccc(OC(=O)c2cccs2)cc1,0.085,1.7
O=C(NCCO)c1ccc(CSc2nc3ccccc3c(=O)[nH]2)cc1,1.6,1.4
O=c1c(C=Nc2cccc(F)c2)c(C(F)(F)F)[nH]n1-c1ccc([N+](=O)[O-])cc1,-0.39,/
COc1ccc(NC(=S)NCC(OC)OC)cc1,0.18,-0.5
O=C(Nc1ccc(Oc2ccccc2)cc1)c1cnccn1,-1.1,-0.2
Brc1ccc(-n2nnnc2/C=C/N2CCCC2)cc1,0.73,-0.55
CCc1ccc(Nc2nnnn2-c2ccccc2)cc1,/,-0.85
CCOC(=O)c1nc(Nc2ccc(OC)cc2OC)c2ccccc2n1,-0.71,/
O=C(Cc1ccccc1)NC1=NCCS1,-0.18,-1.1
CCCC(=O)OC1CCC2(C)C(=CCC3C2CCC2(C)C(C(C)CCCC(C)C)CCC32)C1 (stereo not given),-0.79,/
CCc1cn(C2CC(O)C(CO)O2)c(=O)[nH]c1=O (stereo not given),-0.035,-0.3
CNC(=O)NCCN1CCCC1=O,/,0.15
COc1cc(C)nc(OCCNC(=O)COc2ccc(Cl)cc2C)n1,/,-0.35
CCc1nc2cc(C(F)(F)F)cc(Cl)c2nc1CC,-0.76,-0.2
CCOC(=O)C(C#N)=C1CCCC1,-0.77,-0.45
O=C(Nc1cccc(C(=O)N2CCOCC2)c1)NC1CCCCC1,/,1.1
CN(CC(=O)c1c(N)n(C)c(=O)n(C)c1=O)C1CCS(=O)(=O)C1 (stereo not given),/,-0.7
Cc1n[nH]c(=S)n1CC1CCCO1 (stereo not given),/,-0.1
N#CC1CN(Cc2ccccc2)CN(Cc2ccccc2)C1,-0.51,/
CCCCn1c2c(c3ccccc31)CCc1nonc1-2,5.7,-0.25
CCN(C(=O)Cn1nnc(-c2ccc3c(c2)OCO3)n1)c1ccccc1,0.075,-0.45
CN(C(=O)c1ccccc1NS(=O)(=O)c1ccc(F)cc1)C1CCCCC1,-0.29,-0.25
CCOC(=O)c1ccc(NC(=O)C2OCCc3ccccc32)cc1 (stereo not given),-0.44,0
Cc1sc2nc(CSC(C)C(=O)N=c3sc4ccccc4n3C)[nH]c(=O)c2c1C (stereo not given),/,-1
N#Cc1cc(N)ccc1-n1cccc1,91,-1.2
CCN1C[C@]2(COC)CC[C@H](O)[C@@]34C5C[C@@H]6[C@@H](OC)C[C@@](O)(C5[C@H]6OC(C)=O)[C@@H](CC23)[C@@H]14 (stereo not given in full),0.48,-0.75
O=C(Cn1ncc2c1-c1ccccc1OC2)NCCCN1CCCC1,-0.32,-0.8
CCOC(=O)c1cc(C(C)(C)C)n(-c2ccc(N3CCOCC3)cc2)c1C,10,0
O=S(=O)(c1cccc(Cl)c1)N1CCc2ccccc2C1,-0.23,1.6
CC(C)NC(=O)N1CCn2cccc2C1C (stereo not given),0.085,-0.1
CC(=O)c1c(C)oc2ccc(N(C(=O)c3ccc([N+](=O)[O-])cc3)S(=O)(=O)c3ccccc3)cc12,-0.21,/
O=C1c2sc3nnc(-c4cccs4)c(=O)n3c2C(=O)N1Cc1ccccc1,3.9,/
CCC(CC)NC(=O)c1ccc2nc[nH]c2c1,/,-0.85
COc1ccc(-c2oc3ccccc3c(=O)c2O)cc1,/,0.55
C=CCN(CC=C)C(=O)CSc1ccc2ccccc2c1,-0.63,-0.75
CSC1=NCN(CCCO)CN1,0.08,-1.4
CN1/C(=C\C=N\NC(N)=O)C(C)(C)c2ccccc21,/,-0.05
CC(O)CC12CC3CC(CC(C3)C1)C2 (stereo not given),0.2,0.1
NC(=O)c1cc2cc(Br)ccc2oc1=Nc1ccc(-c2ccccc2)cc1,0.07,/
CCOC(=O)Cn1c(=O)n(Cc2ccco2)c(=O)c2ccc(C(=O)NC3CCCC3)cc21,1.2,-0.6
Cc1cc(C)nc(SCC(=O)NN=Cc2cccs2)n1,-0.52,-0.95
CCN(CCNC(=O)c1ccc(-n2cccc2)cc1)c1cccc(C)c1,0.25,/
# Remaining list, next part.
SMILES,Ba CapD inh,AID504770
O=C1/C(=C/c2ccc(Cl)cc2)C=C(c2ccccc2)N1c1ccc(Cl)cc1,-1.1,/
FC(F)(F)c1cc(C(F)(F)F)c2ccc3nnc(-c4cccs4)n3c2n1,-0.48,/
COC(=O)CCn1ccc(C)n1,0.74,-0.85
Cc1ccc(N2CCN(S(=O)(=O)c3c(C)c(C)cc(C)c3C)CC2)cc1,-0.82,/
O=C(Oc1ccc(Br)cc1)c1cccnc1N1CCCC1,/,-0.45
COc1ccc(N(C)C(=O)C2CCN(S(=O)(=O)c3cccc4nonc34)CC2)cc1,-0.18,-0.65
O=C(NCCO)c1cn(Cc2ccccc2)nc1-c1ccccc1,/,-0.2
CCOC(=O)N1CCc2c(sc3ncn(C)c(=O)c23)C1,2.5,0
Cc1cc(N2C(=O)c3c(c(C)n(C)c3C)C2C(=O)NC2CCC(C)CC2)ccc1Br (stereo not given),-1.6,-1.3
COC(=O)c1ccccc1NC(=O)c1c(-c2ccccc2Cl)noc1C,0.51,/

# A different layout for some results above:
COc1ccc(N(C)C(=O)C2CCN(S(=O)(=O)c3cccc4nonc34)CC2)cc1
- Ba CapD inh = -0.18
- AID504770 = -0.65

O=C(NCCO)c1cn(Cc2ccccc2)nc1-c1ccccc1
- Ba CapD inh = /
- AID504770 = -0.2

# (cont.)
SMILES,Ba CapD inh,AID504770
COc1ccc(NC(=O)c2cn3ccc(C)cc3n2)cc1,/,-1.1
O=C(O)CCCc1ccc2c(c1)OCCO2,-0.065,/
COC(=O)c1ccc2nc[nH]c2c1,0.29,-0.4
Cc1ccc(S(=O)(=O)N2CCCC(n3cccc3)C2)cc1 (stereo not given),0.03,-0.4
CCC(=O)N(Cc1cccnc1)Cc1cc2cc(OC)ccc2[nH]c1=O,/,-0.1
O=C(CN1c2ccccc2S(=O)(=O)c2ccccc21)NCc1ccccc1,2.5,-0.2
Cc1ccc(NC(=O)CN(C)CC(=O)Nc2ccccc2C(=O)NC2CCCC2)cc1,/,-0.2
N#CCC(=O)Nc1ccccn1,0.73,/
COc1cc(C2C(C(=O)OCCOC(C)C)=C(C)NC3=C2C(=O)CC(C)(C)C3)cc(Br)c1O (stereo not given),2,/
COc1ccc(Br)c(C(=O)NC(C)(C)CO)c1,1.4,0.65
Cc1ccc(NCCO)cc1,/,-0.5
CN1c2ccccc2C(C)(C)C12C=Cc1c(ccc3ccccc13)O2 (stereo not given),0.26,/
CCCCCCSc1ncc(C#N)c(N)n1,/,-0.25
O=C(/C=C/c1ccco1)OCc1c(Cl)cccc1Cl,-0.36,-1.1
CC(C)(C)c1ccc2[nH]c3c(cc(NCCO)c4c(=O)c5ccccc5c(=O)c43)oc2c1,0.62,/
Cc1cccc(CCOC(=O)N2CCN(c3ccc(C(F)(F)F)cn3)CC2)c1,2.6,/
O=C(NCc1ccc(S(=O)(=O)NCc2ccccc2)s1)c1ccccc1,0.035,-0.65
CCOC(=O)CSc1nc2c(c(=O)n1CC)C1(CCCC1)Cc1ccccc1-2,0.12,/
Cn1cc(C2N3CC4(C)CN2CC(C)(C3)C4=O)c2ccccc21 (stereo not given),-0.13,/
CC(NC(=O)c1ccco1)C12CC3CC(CC(C3)C1)C2 (stereo not given),/,-1.1
CN1CCN(c2ccc(NC(=O)c3cccc(Cl)c3)cc2)CC1,/,-0.55
COC(=O)C1=NN(c2ccccc2)C2C(=O)N(c3ccccc3OC)C(=O)C12 (stereo not given),-1.3,-0.75
CC12CC(c3cc(Br)cc(Br)c3O1)C(C(=O)c1ccccc1)C(=O)N2 (stereo not given),-0.36,-0.6
NCCNC(=O)C1CCCNC1=O (stereo not given),0.17,/
COc1ccc(C2/C(=C(\O)c3ccccc3)C(=O)C(=O)N2CCN(C)C)cc1 (stereo not given),-0.67,/
COc1ccccc1N1CCN(CCCNC(=O)c2nnc(Cc3ccccc3Cl)o2)CC1,-0.11,2
COc1ccc(N=Nc2cnc(-c3ccccc3)nc2-c2ccccc2)cc1,-0.12,/
COc1cc(NC(=O)c2ccc3snnc3c2)cc(OC)c1,-0.34,-0.5
COC(=O)c1cc2oc3ccccc3c2n1Cc1nc(-c2ccccc2)oc1C,4.3,-0.1
CCOC(=O)Cn1nc(C)c(Br)c1C,0.16,/

# Single entries from the results shown:
# Ba CapD inh result of `COc1ccc(N=Nc2cnc(-c3ccccc3)nc2-c2ccccc2)cc1` → -0.12
# Ba CapD inh result of `COc1cc(NC(=O)c2ccc3snnc3c2)cc(OC)c1` → -0.34

# Additional records
SMILES,Ba CapD inh,AID504770
O=C(N/C=C\n1cnc2cc(C(F)(F)F)ccc21)c1cc2c(s1)CCC2,0.015,0.15
N#CC(C#N)=C(Nc1ccccc1Cl)SCc1cccc(F)c1,-0.34,-0.55
C=CCn1c(SCc2cc(=O)oc3cc(O)ccc23)nnc1-c1ccccc1OC,/,0
COc1cc(C2SCC(C(=O)O)N2C(C)=O)cc(Br)c1O (stereo not given),/,0.45
Cc1nn(-c2ccccc2)c2c1CC(C#N)(C(=O)c1ccc(Cl)cc1)C1CCCN21 (stereo not given),/,-0.85
O=C(Nc1ccc(F)cc1F)c1ccc(=O)n(Cc2ccc(Cl)cc2)c1,-0.94,/
O=C1c2cccc3cccc(c23)C(=O)N1CCc1ccccn1,45,/
O=c1c(C=Nc2ccc(Oc3ccccc3)cc2)c[nH]n1-c1cccc(Cl)n1,0,/
CCC(CC)C(=O)Nc1ccc(C)cc1C,0.34,-0.75
CC(C)Oc1ccccc1C1CC(=O)Nc2c1cc(Br)c1ccccc21 (stereo not given),-0.075,/
Cc1cc(Oc2ccc(=O)n(C)n2)nc(SCC(N)=O)n1,-0.43,0.2
COc1ccc(-n2[nH]c(C)c(C(C)=NCCN3CCOCC3)c2=O)cc1,/,-0.7
CC(C)(C)c1ccc(C(=O)Nc2cccc(-c3cn4cccnc4n3)c2)cc1,0.36,-0.6
C=CCn1c(SC)nnc1-c1ccc(OC)c(OC)c1,0.07,0.4
O=C(O)CCC(=O)Nc1ccncc1,/,-0.35
CC(C)S(=O)(=O)c1csc(C(=O)NN)c1Cl,-0.39,-0.8
NC(=O)c1sc(=S)n2c1[nH]c(=O)c1ccccc12,-0.38,/
CC(C)(C)c1ccc(NC(=O)CCC(=O)O)cc1,/,0.25
CCN1C(=O)/C(=C2/C=Cc3ccccc3N2CC)SC1=Nc1ccccc1,-0.69,/
N=C1c2ccccc2CN1NC(=O)c1ccccc1,/,-0.35

# Profiles, looked up by structure:
# CC(C)(C)c1ccc(C(=O)Nc2cccc(-c3cn4cccnc4n3)c2)cc1 is listed with Ba CapD inh = 0.36; AID504770 = -0.6
# O=C(O)CCC(=O)Nc1ccncc1 is listed with Ba CapD inh = /; AID504770 = -0.35

# The list goes on.
SMILES,Ba CapD inh,AID504770
CN1C(=O)/C(=C2\SC(=S)N(NC(=O)c3ccccc3)C2=O)c2cc(Br)ccc21,-0.4,/
O=C(Nc1cccc(Cl)c1)Nc1ccccc1C(=O)N1CCCCC1,-0.18,1.6
Cc1nn(C(=O)c2cccc(Cl)c2)c(N)c1-c1ccccc1,0.095,0.5
O=C(OC1CCOC1=O)c1ccc(S(=O)(=O)N2CCCC2)cc1 (stereo not given),/,0.75
CCCN(CCC)Cc1cn2c(-c3ccc(OC)cc3)nnc2s1,/,-1.1
Cn1nc(NC(=O)C2CCC2C(=O)O)c2c(F)cccc21 (stereo not given),-1.2,-0.6
COc1cc(/C=C2\CCc3ccccc3C2=O)ccc1OCCC(C)C,3.3,0.3
COc1cc(C2=NOC(=O)/C2=C\c2ccc(Cl)cc2Cl)cc(OC)c1OC,0.34,0.9
COc1cc(Br)c(CC(=O)N2CCOCC2)cc1OC,-0.12,-0.9
COc1ccc(-c2cc(C(F)F)n3ncc(C(=O)Nc4cc(C)on4)c3n2)cc1,/,-0.1

# Part of the list above in order of length of the SMILES, smallest number first.
SMILES,Ba CapD inh,AID504770
Cn1nc(NC(=O)C2CCC2C(=O)O)c2c(F)cccc21 (stereo not given),-1.2,-0.6
O=C(CN1c2ccccc2S(=O)(=O)c2ccccc21)NCc1ccccc1,2.5,-0.2
Cc1cccc(CCOC(=O)N2CCN(c3ccc(C(F)(F)F)cn3)CC2)c1,2.6,/
O=C1/C(=C/c2ccc(Cl)cc2)C=C(c2ccccc2)N1c1ccc(Cl)cc1,-1.1,/

# Continuation.
SMILES,Ba CapD inh,AID504770
CC(C)N1C(=O)CCC1C(=O)N1CCCCC1 (stereo not given),-0.34,0.9
Cc1ccc(-c2nc(-c3ccc(OCC(F)(F)F)nc3)no2)cc1,-0.3,-0.05
CCN(CC)CCn1c(SCC(=O)Nc2cccc(OC)c2)nc2c(sc3ccccc32)c1=O,0.12,-1.1
CCSc1nnc2c(n1)OC(c1cccc(OC)c1OCC(=O)O)Nc1ccc(Br)cc1-2 (stereo not given),-0.73,-0.65
COc1ccc(C2C(C#N)=C(N)N(c3ccccc3C(F)(F)F)C3=C2C(=O)CCC3)cc1OC (stereo not given),-0.62,/
O=C1S/C(=C/c2ccccc2)C(=O)N1c1ccccc1,/,0.5
